Bioassay records as filed in PubChem BioAssay.
miR-21 FLuc: miR-21 reporter, rising signal | HeLa miR-21 FLuc reporter, luciferase, 48 h | Potency, µM (top dose mostly 38.3 µM), for the others: at the top dose reporter change, positive = more light | 340,000 tested, under 10 active; active = well fitted rising curve with a large enough effect; inconclusive = small, poorly fitted or top-dose-only effect; inactive = no such curve, though single readings can be large or run the other way;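 further: % of control where 0% means no effect; miR-21 action dims this reporter so a rising signal means less miR-21 action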
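Luminescence from a firefly luciferase reporter carrying a miR-21 binding site downstream, stably expressed under a CMV promoter in HeLa cells that make miR-21 endogenously, reports miRNA modulation after 48 h compound exposure up to approximately 40uM final.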
GLA inh pH 4.5: alpha-galactosidase A (human) inhibition, pH 4.5; purified enzyme, 4-MU-alpha-Gal fluorescence, pH 4.5; P06280; AID 1467; activity change, negative = inhibition, % at 105 µM; 230,000 tested, under 10 active; inconclusive = small, poorly fitted or top-dose-only inhibition, or a rising curve; inactive = flat fitted curve, though single readings scatter; no compound was filed as active;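 further: 0% = full activity with enzyme and -100% = basal without enzyme; dose as in the result columns while the protocol names 77 µM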
Rango-impB inh: prevents formation of the Rango-importin beta complex; Q14974; Rango CFP/YFP FRET sensor + importin beta, 45 min; Potency, µM (series often up to 92.2 µM), inactives show top-dose inhibition of complex formation; hit rate 0.031% among 340,000; AID 540263; active = rising FRET ratio curve, often small or poorly fitted; inconclusive = mostly compound fluorescence or quenching in the first reads; inactive = flat curves in all reads;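 further: potency means the concentration at half of the fitted maximal effect; 0% = DMSO wells and 100% = buffer wells lacking importin beta; nearly all actives have a fitted effect of over 15% in size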
Target sequence (Q14974 whole entry, looked up): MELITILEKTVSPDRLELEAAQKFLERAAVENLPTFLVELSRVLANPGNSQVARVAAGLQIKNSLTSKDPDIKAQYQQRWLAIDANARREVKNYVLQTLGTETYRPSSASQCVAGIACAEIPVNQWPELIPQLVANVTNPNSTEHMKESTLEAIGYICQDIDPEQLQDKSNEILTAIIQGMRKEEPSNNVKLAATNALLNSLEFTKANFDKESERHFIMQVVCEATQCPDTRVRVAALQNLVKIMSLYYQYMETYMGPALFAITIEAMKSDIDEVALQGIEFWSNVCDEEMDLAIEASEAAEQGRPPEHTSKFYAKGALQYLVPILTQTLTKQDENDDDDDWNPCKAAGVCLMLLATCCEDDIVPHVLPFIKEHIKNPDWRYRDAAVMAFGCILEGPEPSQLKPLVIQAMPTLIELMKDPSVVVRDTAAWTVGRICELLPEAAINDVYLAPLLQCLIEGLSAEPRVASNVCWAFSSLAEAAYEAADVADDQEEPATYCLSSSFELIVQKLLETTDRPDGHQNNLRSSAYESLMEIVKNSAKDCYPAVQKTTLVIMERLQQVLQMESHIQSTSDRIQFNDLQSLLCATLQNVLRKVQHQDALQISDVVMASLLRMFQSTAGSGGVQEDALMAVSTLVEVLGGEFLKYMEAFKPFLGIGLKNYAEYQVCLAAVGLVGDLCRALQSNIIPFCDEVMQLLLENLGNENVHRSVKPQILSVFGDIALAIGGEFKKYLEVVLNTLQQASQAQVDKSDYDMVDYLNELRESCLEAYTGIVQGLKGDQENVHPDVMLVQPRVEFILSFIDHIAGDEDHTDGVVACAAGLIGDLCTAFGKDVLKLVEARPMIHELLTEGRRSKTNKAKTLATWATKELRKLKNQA
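FRET biosensor Rango (snurportin 1 IBB between N-terminal EYFP and C-terminal Cerulean), 50 nM in PBS/1 mM DTT/0.02% Tween-20/0.1% BSA, preincubated 5 min RT with compound; 0.125 microM importin beta added, 45 min RT, CFP/YFP FRET ratio read.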
Rango dissoc inh: prevents RanGTP from dissociating the Rango-importin beta complex; O95149+P62826; Biochemical FRET Rango-importin beta, RanGTP-induced dissociation; Potency, µM (top dose mostly 46.1 µM), for the others: at the top dose activity change, negative = inhibition; hit rate 0.071% among 340,000; active means falling FRET ratio curve, often poorly fitted, with flat reads before Ran was added; inconclusive means other falling curves, or compound fluorescence or quenching; inactive means flat or rising ratio curve;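 further: potency means the concentration at half of the fitted maximal effect; % of control where 0% means no effect; nearly all actives have a fitted effect of over 45% in size; -100% = wells without RanGTP and RCC1; the record marks most hits as doubtful in a second field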
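Two FRET readings bracket the reaction: one 5 min after compound meets Rango–importin beta, another 45 min after RanGTP-RCC1 (0.6 uM Ran, 0.2 uM RCC1, 2 mM GTP) is added. Only the second defines inhibition.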
An asterisk follows results filed as active; ? = inconclusive; nt = no result given; & = joins results of further samples. These rows are one share of the data; count on the stated rates, not on these rows.

SMILES	miR-21 FLuc	GLA inh pH 4.5	Rango-impB inh	Rango dissoc inh
O=C(CN(CCc1ccccc1)S(=O)(=O)c1ccc(Br)cc1)N/N=C/c1ccc2c(c1)OCO2	-3%	7	3.6%	16%
O=[N+]([O-])c1ccc(NC(=S)N2CCN(c3ccccc3)CC2)cc1	-3%	-16	0.7%	1%
CCc1cccc(C)c1NC(=S)N(CCOC)C(C)c1ccco1 (stereo not given)	-2%	4	0.4%	2%
CCOC(CCNC(=O)c1cn(CC(C)C)c(=O)c2c1c1ccccc1n2C)OCC	0%	nt	-1.3%	0%
CCNC(=O)CC1C(=O)N(c2ccc(C)cc2)C(=O)N1CCc1sccc1C (stereo not given)	-5%	-1	-0.7%	19%
CCC(Sc1nc2ccccc2c2nc3ccccc3n12)C(=O)NCc1ccco1 (stereo not given)	2%	10	nt	nt
O=C(c1ccc(Cn2c(=O)[nH]c3ccsc3c2=O)cc1)N1CCN(c2ccccc2)CC1	4%	-6	-0.4%	33%
C=CCn1c(SCC(=O)Nc2ccc3c(c2)CCC3)nc2ccccc2c1=O	2%	-9	2.1%	-16%
O=[N+]([O-])c1cccc2c3c([nH]c12)CCCC3	-7%	-1	-0.4%	21%
C=CCN(C(=O)CNC(=O)c1ccco1)C(C(=O)NC1CCCCC1)c1ccc(OC)cc1OC (stereo not given)	-10%	4	-3.5%	-15%
COC(=O)CSc1nc2ccccc2n1CC(=O)N(C(C)C)C(C)C	-5%	-1	1.3%	0%
N#CC(C(=O)Nc1ccccc1)=C1Nc2ccccc2N1	-6%	-2	-3.1%	5%
COc1cc(/C=C2\SC(=S)N(CCC(=O)N3CCN(C)CC3)C2=O)cc(OC)c1OC	0%	nt	-2.4%	-17%
CCCCn1c(N)c(N(CC(C)C)C(=O)c2cnc(C)cn2)c(=O)[nH]c1=O	nt	nt	-0.6%	-16%
COc1ccc(-c2ccccc2)cc1NC(=O)c1cccs1	0%	nt	-3.1%	-1%
CC(=O)c1ccc(NC(=O)CSc2nc(C)cc(C)c2C(N)=O)cc1	-2%	0	0.2%	-5%
Nc1ccc(N(c2ccccc2)c2ccc(N)cc2)cc1	?	-1	1.0%	5%
O=C(NC(=O)c1ccncc1)NC(c1ccccc1)c1ccccc1	-3%	8	0.4%	-26%
C[C@H](NC(=O)C1(c2ccccc2)CCN(C(=O)[C@H]2CSCN2C(=O)OC(C)(C)C)CC1)C(=O)O	0%&0%	3&4	-0.5%	-4%
CCOC(=O)c1c(NC(C)=O)sc2c1CCCNC2=O	-5%	0	2.6%	2%
CC(C)Oc1cccc(C(=O)N/N=C/c2ccoc2)c1	-22%	nt	-2.9%	-14%
O=S(=O)(CC(CN1CCCC1)N1CCCC1)c1ccc2ccccc2c1 (stereo not given)	-1%	0	?	2%
O=C(CCc1ccccc1)Nc1ccc(S(=O)(=O)N2CCCC2)cc1	-3%	-9	-1.3%	1%
COc1ccc(-c2cc(C(=O)Nc3ccc(Br)cc3)no2)cc1	-1%	nt	-0.2%	2%

Continued, overlapping the part above by two compounds.
SMILES	miR-21 FLuc	GLA inh pH 4.5	Rango-impB inh	Rango dissoc inh
O=C(CCc1ccccc1)Nc1ccc(S(=O)(=O)N2CCCC2)cc1	-3%	-9	-1.3%	1%
COc1ccc(-c2cc(C(=O)Nc3ccc(Br)cc3)no2)cc1	-1%	nt	-0.2%	2%
O=C(NCC1CC1)c1onc(CSc2ccc(F)cc2)c1C(=O)NCC1CC1	nt	nt	0.9%	-13%
CCN(CC)c1ccc(S(=O)(=O)N2CCOCC2)cc1NC(=O)CSc1nncs1	nt	nt	-1.5%	5%
COc1ccc(-c2ccccc2NC(=O)C2CCCN(Cc3ccc(C)o3)C2)cc1 (stereo not given)	7%	nt	3.2%	4%
CCC1(C)CC(C(N)=S)CCO1 (stereo not given)	2%	2	-4.7%	-1%
COc1ccc(S(=O)(=O)N(C)CC(=O)N2CCN(c3ccccc3)CC2)cc1	2%	nt	-0.3%	-9%
Cc1ccc(-n2c(C)cc(C(=O)Cn3nc(C(=O)O)c4ccccc4c3=O)c2C)cc1	-27%	-10	-2.9%	1%
COc1ccc(-c2cc(-c3ccc(Cl)cc3)n[nH]2)c(O)c1	-22%	nt	-1.8%	4%
CCOC(=O)Cc1csc(NC(=O)CCCCCN2C(=O)c3cccc4cccc(c34)C2=O)n1	nt	nt	-3.5%	-11%
COCC1COS(=O)(=O)NC1(C)C (stereo not given)	-1%	nt	?	35%
COc1cc(C)c(Cl)cc1S(=O)(=O)NCc1ccccn1	-5%	nt	-1.2%	-2%
O=C(CSCc1ccccc1)Nc1ccc(Cl)cn1	-47%	5	?	5%
CCCc1cc(=O)[nH]c2nnc(SCC(=O)NC3CCCC3)n12	nt	nt	1.0%	-16%
COc1ccc(NC(=O)C2CCN(C(=O)[C@@H]3Cc4ccccc4CN3)CC2)cc1	-22%	nt	3.4%	-23%
O=C(c1ccc2c(=O)n(CCc3ccccc3)c(=O)[nH]c2c1)N1CCN(c2ccc(F)cc2)CC1	?	nt	-2.6%	-11%
CC(C)(C)n1nnnc1C(c1ccccc1F)N(Cc1ccco1)CC1CCCO1 (stereo not given)	2%	-1	1.6%	5%
O=C(c1ccccc1)c1coc2ccc(O)c(Cl)c12	-41%	1	1.7%	-11%
O=C1NCCNC(=O)c2ccccc2OCCOc2ccccc21	-1%	-7	6.1%	3%
Brc1ccccc1OCCCn1cnc2ccccc21	-67%	-5	3.6%	10%
CCOc1cccc(OCCn2cnc3ccccc3c2=O)c1	-14%	-2	1.1%	3%
CC(CC(=O)N1CCN(c2ccccc2F)CC1)c1ccccc1 (stereo not given)	1%	?	0.5%	0%
COc1ccccc1CCNC(=O)C(C)n1nc(C)c2c(C)n(-c3ccccc3)nc2c1=O (stereo not given)	0%	nt	-0.9%	-3%
CC1=C2C3OC(=O)C(C)[C@@H]3CC[C@](C)(O)C2C2C3C4C5(C12)[C@H]1OC(=O)[C@@H](C)C1CC[C@]4(C)O[C@]5(C)[C@@H]3O (stereo not given in full)	3%	-6	-2.4%	-10%
COc1ccc(CNC(=O)Nc2ccccc2)cc1	-62%	1	-0.3%	-5%
Cc1ccc(C2SCC(=O)N2c2ccccc2)cc1 (stereo not given)	-22%	nt	0.2%	-13%
CCN(CC)S(=O)(=O)c1ccc(F)c(C(=O)NCCCN2CCOCC2)c1	-3%	4	0.7%	9%
CN(C)c1ccc(C=Nc2ccccc2)cc1	0%	-13	3.0%	9%
NC(=O)CSc1nnc(-c2ccccc2F)n1C1CC1	-2%	nt	-0.8%	0%
CC(=O)Nc1ccc(S(=O)(=O)NCc2ccc(C(=O)NCCN3CCCCCC3)cc2)cc1	-1%	-4	2.8%	-10%
Cc1ccc(C(NC(=O)N2CCCCC2)=C(Cl)Cl)cc1F	0%	-1	-1.9%	22%
CCCC/C(C)=N/NC(=O)Nc1ccccc1	-26%	4	2.4%	-10%
C=CCc1cccc2cc(NC(C)=O)c(=O)oc12	-12%	-24	0.7%	8%
COc1cc(NC(=O)CCCN2C(=O)NC(C)(C)C2=O)cc(OC)c1	nt	nt	-3.3%	-9%
COc1ccc(NC(=O)CSCC(=O)N(C)Cc2ccc3c(c2)OCCO3)cc1	nt	nt	-4.1%	13%
CCC12C(=O)C(CC)(C(c3ccccc3)=C1c1ccccc1)[C@@H]1C(=O)N(c3ccccc3)C(=O)C12 (stereo not given in full)	20%	-16	-1.4%	5%
Cc1cc(OCC(=O)N(C(C)C)C(C)C)cc(C)c1Br	-2%	-11	0.7%	14%
COc1ccc(C(=O)N2CCc3cc(OC)c(OC)cc3C2c2cccc([N+](=O)[O-])c2)cc1 (stereo not given)	2%	-19	nt	nt
Nc1c(C(=O)Nc2ccc3c(c2)OCCO3)nnn1Cc1ccccc1Cl	nt	nt	-0.4%	0%
O=C(C[n+]1ccccc1)Nc1ccccc1C(=O)O	-3%	-7	-0.5%	11%
Cc1cccc(C(=O)OCC(=O)N2CC(=O)Nc3ccccc32)c1C	nt	nt	-2.6%	-4%
COc1ccccc1/C=C/C=C1\Oc2c(ccc(O)c2CN2CCN(CCO)CC2)C1=O	-32%	?	?	?
O=C(C[C@H]1C/C=C\CC[C@H](Cc2ccc(F)cc2)C(=O)OC[C@@H](Cc2c[nH]c3ccccc23)NC1=O)NCCO	nt	nt	4.5%	1%
O=C(CNc1cccc2ccccc12)N/N=C/c1ccccn1	1%	2	0.1%	12%
C=CCSC1=N/C(=C/c2ccsc2)C(=O)N1c1ccccc1	-9%	-2	-0.6%	-7%
CC12CCC(C(=O)N3CCN(c4ncccn4)CC3)(c3nc4ccccc4nc31)C2(C)C (stereo not given)	1%	-24	?	-9%
CC(=O)c1ccc(N2Cc3ccccc3C2)cc1	-35%	nt	-5.3%	0%
COc1ccc(NC(=O)CO/N=C2\CCCc3nonc32)cc1	-9%	6	-0.3%	-7%
CSc1ccc(CN2CCN(Cc3ccc([N+](=O)[O-])cc3)CC2)cc1	17%	-16	0.0%	4%
COc1cc2c(cc1OC)CN(Cc1ccc(C)cc1)CC2	4%	nt	-3.2%	-6%
c1ccc(CNc2ncnc3scc(-c4cccs4)c23)nc1	25%	6	-0.2%	14%
O=C(COc1ccc(S(=O)(=O)N2CCOCC2)cc1Cl)N1CCOCC1	11%	nt	0.7%	-1%
COc1cc(CCNC(=O)c2cnn3ccccc23)cc(OC)c1OC	17%	-3	-0.2%	7%
O=S1(=O)CCN2C(=N1)SC1=C2CCN(Cc2ccccc2)C1	-4%	-1	0.9%	-13%
COCCNc1nc(C)cc(-c2cc(-c3ccc(Cl)cc3)on2)n1	-12%	-14	2.6%	22%
O=C(CCl)N1N=C(c2ccco2)CC1c1ccco1 (stereo not given)	?	nt	?	-17%
COc1ccc2c(-c3cc4ccc(OCc5ccc(F)cc5)cc4oc3=O)cc(=O)oc2c1	-6%	4	-4.7%	25%
COc1ccc(S(=O)(=O)N2CCN(Cc3ccc4c(c3)OCO4)CC2)c2ccccc12	2%	-6	1.4%	-5%
O=S(=O)(c1c(F)cccc1F)N1CCN(Cc2c(O)ccc3ccccc23)CC1	nt	nt	-0.4%	2%
CCCCNC(=O)c1cccc(S(=O)(=O)N2CC3(C)CC2CC(C)(C)C3)c1 (stereo not given)	nt	nt	0.0%	-12%
COCCNC(=S)Nc1cc(OC)c(NC(=O)c2ccco2)cc1OC	-31%	6	-0.4%	-6%
N#Cc1ccc(C(=O)NC23CC4CC(CC(C4)C2)C3)cc1	-3%	nt	-0.3%	14%

(next part)
SMILES	miR-21 FLuc	GLA inh pH 4.5	Rango-impB inh	Rango dissoc inh
Nc1nnnn1/N=C/c1cccc(Br)c1	-1%	nt	-1.4%	-18%
O=S(=O)(Nc1cccc2nsnc12)c1ccccc1	0%	0	29µM*	25%
COc1ccc(-c2sc3ccc(OC)cc3c2C#Cc2cncn2C)cc1	nt	nt	-1.1%	-1%
Cn1c(C(=O)NCc2ccccn2)cc2c(=O)n(C)c3ccccc3c21	-4%	-7	2.6%	4%
Cc1ccc(-n2cc(-c3ccccc3)c3c(=O)[nH]cnc32)cc1	-9%	2	-3.6%	12%
Oc1c(C=Nc2ccccc2)sc(=S)n1Cc1ccccc1	-3%	-3	?	?
CN(Cc1ccccc1)S(=O)(=O)c1ccc(NC(=S)NC(=O)C(C)(C)C)cc1	0%	-7	3.3%	2%
C[C@H](CO)N1C[C@H](C)[C@@H](CN(C)Cc2ccc(C(=O)O)cc2)Oc2c(NC(=O)C3CC3)cccc2C1=O	nt	nt	0.0%	-8%

Structural class: those above containing a COOH group.
SMILES	miR-21 FLuc	GLA inh pH 4.5	Rango-impB inh	Rango dissoc inh
C[C@H](NC(=O)C1(c2ccccc2)CCN(C(=O)[C@H]2CSCN2C(=O)OC(C)(C)C)CC1)C(=O)O	0%&0%	3&4	-0.5%	-4%
Cc1ccc(-n2c(C)cc(C(=O)Cn3nc(C(=O)O)c4ccccc4c3=O)c2C)cc1	-27%	-10	-2.9%	1%
O=C(C[n+]1ccccc1)Nc1ccccc1C(=O)O	-3%	-7	-0.5%	11%
C[C@H](CO)N1C[C@H](C)[C@@H](CN(C)Cc2ccc(C(=O)O)cc2)Oc2c(NC(=O)C3CC3)cccc2C1=O	nt	nt	0.0%	-8%
